CSC inhib – cancer stem cell inhibition. cancer stem cell-like cells viability, luminescence. inhibition, % at 7.5 µM. hit rate 1.1% among 300,000;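 active = mean at 75% or more and at least half the replicates too; tested in HMLE shEcad cells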;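 also: 0% = median of negative and 100% = median of positive control wells; the first replicate is given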
UUG fidelity – alters start codon recognition fidelity in yeast | S. cerevisiae UUG-firefly luciferase reporter, luminescence/redox ratio | activity score, % at 18.7 µM | hit rate 0.13% among 350,000;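 active = replicate mean at a twofold rise or more, about +100% in these data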;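 also: firefly luciferase made from a UUG start codon reports start codon fidelity; reporter light over untreated wells divided by growth signal over untreated wells; some hits fall short of that in this replicate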
MT1-MMP act inh – MT1-MMP (human) activation inhibition; AID 651647; hit rate 0.061% among 360,000; GFP/RFP ratio change, % at 20 µM; P50281; HT1080 RFP-PRO-GFP cells, GFP/RFP ratio fluorescence, overnight; percent of plate control window, DMSO zero;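 active = GFP/RFP ratio change of at least 30% with cell ATP level not reduced by more than half and red fluorescence within 50% of control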; also: strong numbers were not always called active
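Assay system: HT1080 cells carrying an RFP-PRO-GFP reporter | Dosing: Single dose of 20 µM compound, 1% DMSO final | Incubation: Cells overnight before dosing, compound overnight, 37 °C, 5% CO2 | Evaluation: GFP/RFP fluorescence ratio | Control set: DMSO and RFP-L50D-GFP cell wells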
PABP FP inh – PABP-poly(A) binding inhibition; P11940; hit rate 1% among 290,000; PABP-poly(A) RNA binding, fluorescence polarization; inhibition, % at 35 µM;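 active = 50% or more with normal probe brightness, or confirmed in later tests; about a fifth of its hits are not listed in these tables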;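 also: calls also rest on retests at 20 µM and on dose response follow-up; controls were probe without protein and protein plus probe with vehicle; some compounds called inactive have numbers as strong as hits; many hits fall short of the cut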
eIF4H FP inh – inhibitors of RNA binding by human eIF4H; hit rate 0.94% among 290,000; inhibition, % at 35 µM; Q15056; eIF4H fluorescence polarization binding assay;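 active = 50% or more with normal probe brightness, or confirmed in later tests; about a fifth of its hits are not listed in these tables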;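 also: calls also rest on retests at 20 µM and on dose response follow-up; 0% = protein and probe with vehicle and 100% = probe without protein; strong numbers were not always called active; many hits fall short of the cut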
Rce1 inh – yeast Ras-converting enzyme inhibition; Q03530; yeast membranes, quenched prenylated peptide cleavage fluorescence; calls only; hit rate 0.27% among 290,000;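 active = fall in fluorescence gain of 50% or more versus controls, with final raw signal at or below 3038400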;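 also: plate controls were neutral control wells for no effect and wells lacking membranes for full effect; tested at 10 µM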
Target sequence (Q03530 whole entry, looked up): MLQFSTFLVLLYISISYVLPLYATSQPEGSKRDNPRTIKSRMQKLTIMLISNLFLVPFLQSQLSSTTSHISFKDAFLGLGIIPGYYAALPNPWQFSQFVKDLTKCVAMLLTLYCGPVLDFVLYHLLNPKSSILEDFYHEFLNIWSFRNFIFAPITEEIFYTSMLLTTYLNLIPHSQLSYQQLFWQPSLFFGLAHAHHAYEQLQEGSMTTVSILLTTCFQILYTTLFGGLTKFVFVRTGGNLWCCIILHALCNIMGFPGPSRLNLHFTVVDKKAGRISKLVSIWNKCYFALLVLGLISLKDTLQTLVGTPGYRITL
Env fusion inh – HIV envelope-mediated fusion inhibition | HeLa-JRFL Env/CEM21 cell fusion, luciferase | inhibition, % at 12.3 µM | hit rate 1.1% among 360,000;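 active = mean replicate inhibition score of at least 50 and every replicate individually at or above 50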;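 also: 0% = plate neutral controls and 100% = maraviroc near 300 nM; one replicate is shown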
eIF4H FP inh retest – also measured in eIF4H FP inh; calls as there; inhibition, %; compound at 20 µM; confirmation average;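 mean of two retest wells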
PABP FP inh retest – second read-out of PABP FP inh, no call of its own (marks repeat the call); inhibition, %; compound at 20 µM; confirmation repeats;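 mean of two retest wells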
MT1-MMP act inh RFP – further read-out of MT1-MMP act inh, marked with its call; RFP signal change, %; measured here: RFP expression control read;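 0 = vehicle wells; hits needed this value within 50% of zero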
An asterisk follows results filed as active; i = inactive; x = no result given.

SMILES	CSC inhib	UUG fidelity	MT1-MMP act inh	MT1-MMP act inh RFP	PABP FP inh	eIF4H FP inh	Rce1 inh	Env fusion inh	others
Cc1ccc(SCc2[nH]nc3c2C(c2cccnc2)C(C#N)=C(N)O3)cc1 (stereo unspecified)	-4.0	-16.9	5.3	8.2	0.2	1.4	i	x
O=C(NN1C(=O)C2C3C=CC(C3)C2C1=O)c1ccccc1 (stereo unspecified)	-59.1	x	-0.8	4.9	-8.8	-10.9	i	-11.1
COc1ccc(NC(=O)C2CCN(C(=O)c3ccco3)CC2)c(OC)c1	-2.6	-6.4	-0.1	0.8	-17.6	-11.2	i	1.2
O=C(COC(=O)CCNS(=O)(=O)c1ccccc1)NC1CC1	3.4	-5.4	-1.3	-0.8	x	x	x	x
O=C(COC(=O)c1ccccc1O)NNC(=O)c1ccc(Br)cc1	x	2.2	-2.6	-1.0	x	x	x	-90.3
Cc1cc(C)nc(-n2nc(C)cc2NC(=O)C(C)C)n1	-6.1	-29.3	1.7	3.1	8.2	-10.3	i	-4.4
COc1ccc(-c2csc(C(C)(O)c3ccncc3)n2)cc1OC (stereo unspecified)	x	-6.9	-3.4	-8.5	x	x	x	-4.1
CNc1ccc(C(=O)N2CCN(S(=O)(=O)c3ccc4c(c3)OCCCO4)CC2)cc1[N+](=O)[O-]	-2.8	14.5	6.3	-6.6	9.3	-6.7	i	-8.6
COc1cccc(/C=C/C(=O)OCC(=O)NC(=O)NC2CCCCC2)c1	x	-18.4	0.9	-2.1	x	x	i	2.4
O=C(N=C1SC2CS(=O)(=O)CC2N1CCc1ccccc1)C1CC1 (stereo unspecified)	-12.5	4.5	-0.7	3.3	5.3	-5.3	i	-0.4
CCOc1ccc(N2C(=O)CS/C2=C(\C(Cl)=C(Cl)Cl)[N+](=O)[O-])cc1	15.3	11.0	-16.1	9.1	14.3	-4.0	i	x
CCC(C)Cn1cnc2c(SCc3ccccc3F)nc(N)nc21 (stereo unspecified)	x	-15.1	2.2	-14.5	x	x	x	-11.6
O=C(CCc1ccc(O)cc1)NNC(=S)NCCc1ccccc1	5.5	-26.5	0.9	-2.1	6.6	-1.6	i	1.5
CC(C)OC(=O)CC1C(=O)NCCN1C(=S)NC(=O)c1ccc(F)cc1 (stereo unspecified)	-0.4	-26.1	-3.9	-1.6	2.0	-9.8	i	-3.4
Cc1cc2c(c(=O)o1)C1(C(=O)N(C)c3ccccc31)C(C#N)=C(N)O2 (stereo unspecified)	-7.6	1.5	5.8	9.0	-9.7	-0.7	i	-32.4
CNC(=O)Nc1cccc(-c2cc(-c3c(Cl)cccc3Cl)no2)c1	21.5	x	3.9	-5.8	1.6	-9.2	i	-25.2
Cc1ccc(C(=O)OCC(=O)Nc2ccc(Cl)cn2)cc1S(=O)(=O)N1CCOCC1	x	4.4	2.3	2.7	x	x	x	-2.1
CSCC[C@H](NC(=O)[C@@H]1CSC2c3ccccc3C(=O)N21)C(=O)NC1CCCC1 (stereo partly specified)	-8.6	-9.3	1.1	3.2	8.5	-1.5	i	-2.3
Cc1ccccc1-c1nc(CS(=O)(=O)CC(=O)NCCN2CCOCC2)c(C)o1	-12.6	-6.1	0.3	2.1	7.4	-5.9	i	-6.1
COC(=O)c1cccc(NC(=O)c2ccc3c(c2)C(=O)N(C(C)(C)C)C3=O)c1	-1.5	-8.0	12.4	-12.0	-1.7	-17.6	i	-54.9
CN(C(=O)c1cc(Cl)c2c(c1)OCCO2)c1c(N)n(Cc2ccccc2)c(=O)[nH]c1=O	x	-8.9	4.3	2.2	x	x	x	-5.8
CC(C)C[C@]1(c2ccccc2)ON(c2ccccc2C(F)(F)F)C1=O	39.6	-4.4	2.9	1.0	x	x	x	-8.9
COCCNCc1ccc(Cl)cc1Cl	-12.2	x	2.3	8.3	5.0	-5.2	i	13.6
OCCNCCSc1nc(C2CCCCC2)n(-c2ccccc2Cl)n1	-12.6	-9.9	-0.2	0.8	50.1	4.8*	i	1.4	eIF4H FP inh retest=61.9*;PABP FP inh retest=47.1
O=C(NC1CCCC1)C1CCN(C(=O)NCc2ccccc2)CC1	-8.5	x	-0.2	4.6	46.3	5.0	i	4.1
CCn1ccnc1CN(C)Cc1c(C(=O)N2C[C@@H](C)O[C@@H](C)C2)nc2ccc(Cl)cn12	-6.1	-9.1	2.3	0.1	-9.5	-4.4	i	-3.0
Cc1cc(C)n(CC(=O)NNC(=O)CCCOc2ccc(Cl)cc2C)n1	-0.1	-17.9	2.2	-0.5	-3.0	-9.7	i	7.4
COc1ccccc1NC(=S)c1ccccc1	-13.6	-19.0	2.6	3.2	-9.6	-10.4	i	-3.4
O=C(c1cc2ccccc2o1)n1nnc2ccccc21	-4.7	-16.4	-10.9	-3.3	16.3	2.6	i	x
Cc1cc2oc(=O)cc(Cn3ccnc3)c2cc1Cl	-5.4	x	3.1	-0.6	-2.7	1.0	i	19.9
Cc1occc1C(=O)O/N=C(\N)c1ccccc1	20.7	-25.3	3.3	-0.7	-4.3	-0.5	i	-27.8
O=C(CN1CCN(S(=O)(=O)c2ccccc2)CC1)Nc1ccc(N2CCOCC2)cc1	0.6	-3.6	0.8	-1.5	8.9	0.7	i	18.5
CSc1cccc(NC(=S)N(CCN(C)C)C(C)c2ccccn2)c1 (stereo unspecified)	27.8	-18.6	6.9	5.7	2.0	3.6	i	7.0
CCn1c(C)cc(C)c(C#N)c1=O	1.1	x	-0.9	-1.9	6.0	5.7	i	-7.0
O=c1nc(-c2ccccc2)n(-c2ccccc2)[nH]1	-16.7	-16.0	0.9	4.7	12.2	8.6	i	x
COCCNC(=O)CSc1nnc(-c2ccc(C)cc2)c(-c2ccc(C)cc2)n1	12.2	-13.5	-2.3	-2.8	-9.7	-10.9	i	6.0
CCN(CC(=O)Nc1ccc(NC(C)=O)cc1)C(=O)C1COc2ccccc2O1 (stereo unspecified)	-15.9	-2.6	-3.8	-3.3	0.9	-3.7	i	-16.6
COc1ccccc1/C=C/C(=O)NC(=S)N1CCOCC1	-4.4	-40.2	2.1	3.1	0.4	-5.2	i	-33.7
O=C(O)c1cccnc1SCc1cccc(Br)c1	15.6	-10.9	3.0	1.3	-6.7	-0.9	i	-42.6
O=C(Nc1ccc(CSc2ccccc2)cc1)c1ccco1	30.4	-1.5	1.0	-3.5	0.9	-4.2	i	-24.7

The list goes on (two carried over from the part before).
SMILES	CSC inhib	UUG fidelity	MT1-MMP act inh	MT1-MMP act inh RFP	PABP FP inh	eIF4H FP inh	Rce1 inh	Env fusion inh	others
O=C(O)c1cccnc1SCc1cccc(Br)c1	15.6	-10.9	3.0	1.3	-6.7	-0.9	i	-42.6
O=C(Nc1ccc(CSc2ccccc2)cc1)c1ccco1	30.4	-1.5	1.0	-3.5	0.9	-4.2	i	-24.7
Cc1cc2c(cc1S(=O)(=O)CCC(=O)N(C)C1CCCCC1)OCC(=O)N2	x	-7.5	0.2	5.4	1.5	-9.3	i	-6.0
CNc1ccc(Cl)nn1	7.1	-12.5	1.0	1.8	-5.8	-5.5	i	5.7
Cc1nn(CC(=O)NCc2ccc(OC(C)C)cc2)c(=O)c2cc(-c3ccccc3)nn12	6.7	-15.5	0.8	0.7	-3.7	1.4	i	x
CN1CCN(CC(=O)Nc2cc(N(C)C)nc3ccccc23)CC1	x	x	-2.7	0.0	41.4	2.2	i	-4.8
COC(=O)c1ccccc1S(=O)(=O)N1CCC(C(=O)NCc2ccco2)CC1	-9.4	-12.5	1.4	-1.7	x	x	x	8.2
CS(=O)(=O)N1c2ccccc2[C@]2([C@@]34C[C@H]5C(=O)N[C@@H](Cc6ccccc6)C(=O)N5[C@@H]3N(S(C)(=O)=O)c3ccccc34)C[C@H]3C(=O)N[C@@H](Cc4ccccc4)C(=O)N3[C@H]12	0.9	x	x	x	x	x	i	-22.2
Cc1ccc2nc(NC(=O)CSc3nc(=O)n(CCCN(C)C)c4c3CCC4)sc2c1	-11.1	-13.6	-1.4	1.0	x	x	i	16.3
CCOc1ccccc1NC(=O)CSc1ccccc1	-8.7	-8.4	1.3	-2.6	4.0	-0.6	i	-62.2
COc1ccc(-n2c(C)csc2=S)cc1	-6.9	-21.1	5.2	6.3	0.0	-0.4	i	-177.3
Cc1ccccc1N1CC2=C(C1=O)C(c1ccccc1)NC(=O)N2C (stereo unspecified)	-9.6	-10.4	0.8	3.2	-18.1	-7.1	i	6.0
COC(=O)c1c(N2C(=O)Nc3ccccc3N2O)sc2c1CCCC2	-4.4	x	-1.3	5.8	-6.5	3.4	i	17.1
C/C(=N\NC(=O)CNC(=O)c1cccs1)c1ccc(Cl)c(Cl)c1	-9.7	0.6	2.5	-0.2	0.5	-10.0	i	21.1
Cc1cnc(C(=O)NC2CC(C)(C)Cc3c2cnn3-c2cccc(F)c2)cn1 (stereo unspecified)	x	-23.3	-2.7	-0.7	2.8	-8.8	i	15.6
c1ccc(-c2nc(-c3nccc4ccccc34)oc2-c2ccccc2)cc1	37.0	x	-0.6	-5.0	-10.4	-10.0	i	-23.8
CCCn1cnnc1CNC(=O)[C@H]1O[C@@H](n2ccc(=O)[nH]c2=O)[C@H](O)[C@@H]1O	x	-8.7	-1.3	2.3	x	x	x	3.7
COc1ccc(-c2csc(N3C(=O)C4C5c6ccccc6C(c6ccccc65)[C@@H]4C3=O)n2)cc1 (stereo partly specified)	8.4	x	-0.6	1.7	-12.3	-8.6	i	-9.2
CCN1CCN(C(=O)c2cc(COc3ccc4ncccc4c3)on2)CC1	6.6	-13.1	-4.5	-19.2	1.7	5.2	i	1.0
CCOCCn1c(CN2CCc3ccccc3C2)nc2c1c(=O)n(C)c(=O)n2C	-0.2	x	1.8	-7.3	-3.7	-1.2	i	-3.7
Cc1ccc2cc(CCNC(=O)c3ccc(Br)o3)c(=O)[nH]c2c1	-9.0	x	-0.3	-4.1	-0.8	-5.9	i	x
O=C(NCCN1CCOCC1)/C(=C/c1ccc(F)cc1)NC(=O)c1ccccc1	x	-11.3	4.1	2.3	-1.3	3.9	i	-24.9

An excerpt from above in order of SMILES length, rising:
SMILES	CSC inhib	UUG fidelity	MT1-MMP act inh	MT1-MMP act inh RFP	PABP FP inh	eIF4H FP inh	Rce1 inh	Env fusion inh	others
CNc1ccc(Cl)nn1	7.1	-12.5	1.0	1.8	-5.8	-5.5	i	5.7
C/C(=N\NC(=O)CNC(=O)c1cccs1)c1ccc(Cl)c(Cl)c1	-9.7	0.6	2.5	-0.2	0.5	-10.0	i	21.1
COC(=O)c1ccccc1S(=O)(=O)N1CCC(C(=O)NCc2ccco2)CC1	-9.4	-12.5	1.4	-1.7	x	x	x	8.2

Remaining list, next part
SMILES	CSC inhib	UUG fidelity	MT1-MMP act inh	MT1-MMP act inh RFP	PABP FP inh	eIF4H FP inh	Rce1 inh	Env fusion inh	others
O=C(Cc1ccc(F)cc1)NC(Cc1c[nH]c2ccccc12)C(=O)O (stereo unspecified)	5.5	-5.5	3.6	6.4	4.9	-2.9	i	-1.3
O=C(NC(=S)Nc1ncccn1)c1ccc(F)cc1	-5.3	-8.3	3.5	4.4	6.9	-4.8	i	-27.7
O=C(/C(=C/O)N=Nc1ccccc1)c1ccco1	17.8	x	1.7	-1.3	-10.4	2.5	i	8.4
COc1cccc(-n2ccnc2SCC(=O)Nc2cc(OC)ccc2OC)c1	2.6	x	2.7	-5.2	-1.5	1.7	i	x
Cc1ccc(S(=O)(=O)NCC(=O)OC(C)C(=O)NCc2ccc3c(c2)OCO3)cc1 (stereo unspecified)	x	11.2	5.8	3.1	x	x	x	-8.4
O=C(Nc1cccc(C(F)(F)F)c1)c1ccc(Cn2cc(Br)cn2)o1	10.1	-4.9	11.8	-7.1	4.8	4.3	i	79.4*
O=C(Nc1ccc(-c2nc3cccnc3s2)cc1)c1ccc(Br)o1	x	-15.4	x	x	-4.8	-9.9	i	-10.5

Some of the compounds tested. The share of hits here may be higher or lower than overall.
